Sa growth 42C – blocks Staphylococcus aureus growth. S. aureus RN4220 growth, OD600, 20 h, 42 °C; hits give low values. 170,000 compounds, 0.53% hits. AID 720641. relative growth, % (test concentration not listed);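 active = growth at 42 °C up to 50% and 20 or more points under that at 30 °C, or under 10% at both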;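 note: 300 nL library stock went into each well; scaled to the means of positive and negative controls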
HCMV UL50-53 inh – cytomegalovirus nuclear egress complex inhibition; HTRF UL50-UL53 interaction, normalized percent inhibition; inhibition, % (concentration not given with the values); 190,000 compounds, 0.15% hits;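 active = both replicates at 50% or more, plus weaker picks with an unusually low signal ratio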;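 note: stock transfer was 100 nL into about 20 µL; 0% = negative control wells and 100% = wells with untagged competitor protein; inactives centre near -12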
GIV-Gai inh – blocks GIV peptide binding to rat Galpha-i3; percent of control (FP), % (no concentration beside the values); 210,000 compounds, 0.42% hits; AID 1224905; P08753; Galpha-i3/FITC-GIV peptide fluorescence polarization, 90 min; hits give low values; scaled: aluminum fluoride 0%, vehicle 100%;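 active = replicate mean at 85% of control or lower, very high polarization wells dropped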;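 note: wells of about 15 µL received 100 nL stock; the first replicate is given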
Target sequence (P08753 whole entry, looked up): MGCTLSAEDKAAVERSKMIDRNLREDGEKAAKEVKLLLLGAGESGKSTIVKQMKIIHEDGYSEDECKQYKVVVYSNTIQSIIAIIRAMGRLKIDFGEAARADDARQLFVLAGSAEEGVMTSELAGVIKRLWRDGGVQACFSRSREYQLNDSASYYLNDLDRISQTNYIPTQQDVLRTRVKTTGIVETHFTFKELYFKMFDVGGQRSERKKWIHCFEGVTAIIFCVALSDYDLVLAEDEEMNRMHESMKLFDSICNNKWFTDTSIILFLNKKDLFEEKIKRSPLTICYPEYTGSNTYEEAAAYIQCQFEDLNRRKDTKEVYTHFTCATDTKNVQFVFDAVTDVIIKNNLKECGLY
Sa growth 42C second temp – further read-out of Sa growth 42C, marked with its call; relative growth, %; measured here: growth at 30 °C;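 optical density after 20 h as mean of two plates; 100% = untreated growth and lower means inhibition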
Starred values were filed as active, the others as inactive; · = not tested or not shown; & = joins results of further samples. The order is random. Share with any hit: about 0.8%.

SMILES	Sa growth 42C	Sa growth 42C second temp	HCMV UL50-53 inh	GIV-Gai inh
COc1ccc(C2(O)CC3CCC(C2)N3c2cc(C)nc(-c3ccccc3)n2)cc1 (stereo unspecified)	124	76	-5	105
O=S(=O)(Nc1ccc(F)cc1F)c1ccc(-n2cccn2)cc1	113	90	·	105
CC1(C)CC(=O)c2cnc(NC(=O)c3ccc(Cl)cc3)nc2C1	97	86	-4	106
COc1ccc(-c2cc(C(=O)Nc3sc4c(c3C(N)=O)CCC(C)C4)no2)cc1OC (stereo unspecified)	107	104	4	94
CCCCN(C)CCNC(=O)c1ccc(Cn2c(=O)[nH]c3cc(OC)c(OC)cc3c2=O)cc1	105	93	-10	106
O=C(Oc1ccc(C2Oc3ccccc3C3CC(c4ccccc4)=NN32)cc1)c1ccccc1 (stereo unspecified)	·	·	-23	95
Cc1cc2nc(-c3ccc(Cl)cc3)cc(C(F)(F)F)n2n1	114	98	·	105
CCN(CCCNC(=O)CCc1nc2sc3c(c2c(=O)[nH]1)CCC(C(C)(C)C)C3)c1ccccc1 (stereo unspecified)	·	·	-12	98
COc1ccc(-n2nc(C(=O)N(C)c3ccccc3)c3c4ccccc4n(C)c3c2=O)cc1	103	96	·	108
CCOc1cc(-c2noc(CCCC(=O)Nc3cccc(C)c3C)n2)cc(Br)c1OC	90	90	-14	104
OC1CCCN(C(=S)NCc2ccccc2)C1 (stereo unspecified)	98	98	-13	108
O=C(O)C1CCCN(S(=O)(=O)N2CCCCC2)C1 (stereo unspecified)	105	89	·	100
Cc1ccsc1CN(C(=O)c1oc2ccc(Br)cc2c1C)C1CCS(=O)(=O)C1 (stereo unspecified)	115	92	-6	100
O=C(CSc1nc2ncc(Cl)cc2[nH]1)NN1C(=O)NC2(CCCCC2)C1=O	76	90	-21	·
CCS(=O)(=O)N1CCCN(c2ccc(=O)n(-c3ccc(F)cc3)n2)CC1	·	·	-28	102
CCCn1nc(C(=O)N2CCCCCCC2)c2ccccc2c1=O	70	83	-23	·
COC(=O)c1ccc(NC(=O)CCn2cccn2)cc1	102	86	·	100
O=C(O)c1cc2cccc(S(=O)(=O)N3CCCCC3)c2cc1O	107	94	-46	96
Cc1cccc(NC(=O)NC(C)c2c(-n3cccc3)sc(C)c2C)c1C (stereo unspecified)	86	88	·	89
O=C(CSC(=S)N1CCOCC1)c1ccccc1	117	85	-7	102
CC1=C(C(=O)Nc2cc(C)ccn2)C(c2cccc(Oc3ccccc3)c2)C2=C(CCCC2=O)N1 (stereo unspecified)	·	·	-9	100
COc1cccc(CN(C)CCN)c1	98	89	0	102
COc1ccc(C(=O)NCC2(N3CCN(C)CC3)CCCCC2)cc1	97	89	-6	97
COc1ccc(CNC(=O)c2ccc(Cn3c(=O)c4cccn4c4cccnc43)cc2)cc1OC	103	84	·	103
O=C(NC1CCC(O)CC1)c1cc(Cl)c(O)c(Cl)c1 (stereo unspecified)	86	67	7	·

Other records follow:
SMILES	Sa growth 42C	Sa growth 42C second temp	HCMV UL50-53 inh	GIV-Gai inh
O=C(CN1C(=O)CCCc2ccccc21)NCc1cc(F)cc(F)c1	·	·	-5	109
COc1ccc(NC(=O)CSc2nc3ccccc3n2Cc2ncc(C)c(OC)c2C)cc1	·	·	-11	99
CCC1CCCCN1C(=O)COc1ncnc2ccccc12 (stereo unspecified)	99	93	7	·
CCOc1ccc(NC(=O)c2oc3cc(C)c(Cl)cc3c2C)c2cccnc12	·	·	-21	100
COC(=O)c1ccc(-n2nnnc2SCC(=O)NC(C)(C)C)cc1	95	89	0	·
CCCCCn1c(=O)[nH]c2cc(C(=O)N3CCN(c4ccc(OC)cc4)CC3)ccc2c1=O	98	93	8	104
Cc1cc(C)cc(NC(=O)Nc2cc3c(cc2N2CCCC2)n(C)c(=O)n3C)c1	·	·	-13	102
COc1cccc(C2=NC(C)(C)NC(c3ccccc3O)C2)c1 (stereo unspecified)	83	73	·	103
Cc1cc(=O)oc2cc(OCC(=O)N3c4ccccc4CC3C)ccc12 (stereo unspecified)	88	82	-40	·
COc1ccccc1NC(=O)Nc1nc(CC(=O)NCc2cccs2)cs1	90	72	-31	103
S=c1nn[nH]n1Cc1cccs1	92	86	-28	·
O=C1CC(C(=O)Nc2ccccc2F)n2c(nc3ccccc32)N1 (stereo unspecified)	·	·	-12	100
CC1CCN(C(=O)CN2CCSc3ccc(S(=O)(=O)N(C)C)cc32)CC1	96	84	·	105
COc1ccc(S(=O)(=O)NCc2ccccc2)cc1	112	80	·	102
Cc1ccc(C)c(CSc2nnc3[nH]c(=O)cc(-c4ccccc4)n23)c1	118	87	·	100
COC(=O)CSc1cc(C(C)(C)C)c(O)c(C(C)(C)C)c1	101	76	-25	·
O=C(COC(=O)c1cccc(Cl)c1)NC12CC3CC(CC(C3)C1)C2	96	94	-17	·
Cc1ccccc1NCc1nc[nH]c1C	109	96	-10	104
COc1ccc(C2C(C(=O)Nc3ccc(C)cc3)=C(C)Nc3nnnn32)cc1OC (stereo unspecified)	·	·	-20	106
CC(=O)OCC#CCSc1nnc(-c2cccc(Br)c2)o1	110	84	-32	104
CC(C)CCn1c(=O)c2ccccc2n2c(SCc3cc(Cl)cc4c3OCOC4)nnc12	90	106	15	·
CNS(=O)(=O)c1ccc2[nH]c(=O)cc(C)c2c1	88	96	3	105
O=C(O)c1cc(NC(=O)c2cccs2)cc(C(=O)O)c1	114	87	·	103
CCOC(=O)c1ccc(N=C2SC(C(=O)Nc3ccccc3)CC(=O)N2C)cc1 (stereo unspecified)	102	95	-20	110
COc1ccc(Nc2nc(NCCO)c3ccccc3n2)c(OC)c1	95	81	5	106

Next records follow.
SMILES	Sa growth 42C	Sa growth 42C second temp	HCMV UL50-53 inh	GIV-Gai inh
COC(=O)c1ccc(NC(=O)C(C)C)cc1	95	86	-12	·
c1ccc(-n2ncc3c(OCc4nc5ccccc5s4)ncnc32)cc1	80	95	-33	·
CCc1nnc2c(Nc3ccc(O)cc3)nc3ccccc3n12	101	86	-11	100
CCOc1cc(-c2cc(I)c(O)c(OC)c2)cc(=O)c2c(C)oc(C)c12	101	83	-33	108
Cc1noc(C)c1/C=N/NC(=O)CC12CC3CC(CC(C3)C1)C2	104	105	-12	·
CCC(c1nnnn1Cc1ccco1)N(Cc1cccs1)Cc1cc2c(C)cc(C)cc2n2nnnc12 (stereo unspecified)	112	77	-15	103
CCOC(=O)c1ccccc1NC(=O)c1sc(NC(=O)c2ccccc2OC)c(C(=O)OCC)c1C	·	·	-8	108
O=C1CC(C(=O)O)c2ccccc2N1 (stereo unspecified)	92	88	-17	106&104
CCN(CC)c1cc(C(=O)O)c2cc(NC(=O)CC(C)C)ccc2n1	·	·	-42	112
CN(C)S(=O)(=O)Nc1ccc(N2CCC(CCN3CCOCC3)CC2)c(C(=O)O)c1	·	·	-18	100
Cc1ccc(NC(=O)C2CCN(c3nn4cc(-c5ccc(C)cc5)nc4s3)CC2)cc1	121	97	·	109
Cn1nc(C(F)(F)C(F)F)cc1-c1ccccc1O	99	84	-10	104
O=C(COc1ccc(-n2ccnc2)cc1)Nc1cccc(Cl)c1	74	66	-28	·
O=S(=O)(NCCn1c(-c2ccc(F)cc2)nc2cccnc21)c1ccccc1	·	·	-16	112
CCCN(c1nc(C)cc(OC)n1)S(=O)(=O)c1ccccc1Cl	·	·	0	104
CCOC(=O)C1CCCN(S(=O)(=O)c2ccc3c(c2)oc(=O)n3C)C1 (stereo unspecified)	102	91	-28	106
c1ccc2c(c1)C(Nn1cnnc1)=N/C2=N\n1cnnc1	76	87	-75	·
Nc1c(-c2nc(-c3ccncc3)no2)nnn1CC(=O)Nc1ccccc1	127	86	·	108
Cc1cc(C(=O)N2CCN(c3ccccc3F)CC2)c2c(C)nn(-c3ccccc3)c2n1	99	105	·	109
CN1CCc2c(sc3c2CN(C(=O)Nc2ccccc2)C(c2ccccc2)c2cccn2-3)C1 (stereo unspecified)	·	·	-9	118
CCOC(=O)c1ncoc1-c1ccc(C(F)(F)F)cc1	81	66	-6	99
Cc1cc2cc(CNC(=S)NC(C)(C)C)ccc2n1C	115	95	·	98
CCC(=O)N1CCc2cc(S(=O)(=O)CCC(=O)NCc3ccccc3Cl)ccc21	103	89	-15	100
COC(CNC(=O)c1cc(=O)[nH]c2ccc(Br)cc12)OC	99	80	·	99
Cc1c2cnn(-c3ccccc3)c(=O)c2c(C)n1CC(=O)NC(C)C	92	82	·	104

Other results:
SMILES	Sa growth 42C	Sa growth 42C second temp	HCMV UL50-53 inh	GIV-Gai inh
Oc1ccc2c(c1)oc1cc(O)ccc12	64	30	-18	98
O=S(=O)(c1ccccc1)N(c1ccccc1)c1ccccc1	91	68	-13	·
COC(=O)c1ccc2c(=O)n(CCCCCC(=O)N3CCN(c4cccc(C)c4C)CC3)c(=O)[nH]c2c1	105	93	·	100
O=C(CSc1ncnc2nc[nH]c12)N1CCOCC1	109	96	-8	102
CNC(=O)c1c(-c2ccc(F)cc2)nc2n1CCS2(=O)=O	·	·	8	103
O=C1C2(CCC13COC(c1cc(Br)ccc1O)OC3)COC(c1cc(Br)ccc1O)OC2 (stereo unspecified)	105	85	-15	·
COC(=O)c1ccc(NC(=O)c2sc3nc(C)cc(=O)n3c2C(=O)Nc2ccccc2)cc1	·	·	17	109
CCOC(=O)c1ccc(Nc2nc3ccc(C(=O)c4ccccc4)cc3n3c(C)nnc23)cc1	94	93	3	110
COc1ccccc1C(=O)N(CCN(C)C)c1nc2c(Cl)cccc2s1	·	·	-6	102
CC(=O)N(Cc1cc2cc(C)c(C)cc2n2nnnc12)CC1COCCO1 (stereo unspecified)	127	98	-4	107
Clc1ccc(SCCCCn2cncn2)cc1	93	90	2	100
Cc1ccc(-n2c3c(c(=O)[nH]c2=O)C(NC(=O)C(C)(C)C)(C(F)(F)F)C(=O)N3)cc1 (stereo unspecified)	84	91	-12	99
O=C1C2C3CC4C5C3C1C5C(F)(F)C42 (stereo unspecified)	100	99	-8	108
CCOC(=O)c1c(/N=C/C2=C(O)C(c3ccccc3)CCC2=O)sc(C)c1C (stereo unspecified)	102	84	4	101
Cc1ccc(C(=O)CC2(O)C(=O)N(CCc3ccccc3)c3ccc(Cl)cc32)cc1 (stereo unspecified)	96	81	10	103
Cc1cccc(CC2C(=O)Nc3ccccc32)c1 (stereo unspecified)	101	92	-9	103
CCOc1ccc(CCNC(=O)c2cc3c(=O)oc4ccc(C)cc4c3s2)cc1OCC	108	88	-35	104
Cc1cc(C)c(C(=O)N2CCC(CC(=O)N3CCC4(CC3)OCCO4)CC2)[nH]1	·	·	-8	105
Cc1ccnc(NC(c2ccccc2F)c2ccc3cccnc3c2O)c1 (stereo unspecified)	82	94	-36	96
CCc1ccccc1NC(=O)c1ccc(F)c(S(=O)(=O)N2CCN(c3cccc(Cl)c3)CC2)c1	120	88	·	106
O=c1ccc(-c2ccc(Cl)c(S(=O)(=O)N3CCCCC3)c2)n[nH]1	·	·	-26	107
Cc1cc(Cl)ccc1NC(=O)CSc1nc2c(c(=O)[nH]1)CCC2	93	89	-30	106
Cc1cccc2c1-c1sc(C(=O)NCc3ccccc3Cl)cc1CO2	104	87	-37	101
CC(C)/C=C1\CCCCC1N(C)C(=O)NC(C)C (stereo unspecified)	92	86	-12	101
Cc1nn(-c2ccccc2)c(-n2cccc2)c1C(=O)N1CCN(c2ccccc2)CC1	101	90	3	99

(more compounds)
SMILES	Sa growth 42C	Sa growth 42C second temp	HCMV UL50-53 inh	GIV-Gai inh
CCOc1ccccc1NS(=O)(=O)c1ccc2c(c1)CC(C)N2C(=O)C1CC1 (stereo unspecified)	107	75	·	103
CC1CCCC(NC(=O)CCCn2ncn3c(cc4occc43)c2=O)C1C (stereo unspecified)	104	90	-2	105
CCCNC(=O)CCc1c(C)nc2nc(-c3cc(OC)cc(OC)c3)nn2c1C	86	95	-11	100
CCN(CC)S(=O)(=O)c1cccc(-c2n[nH]c(=S)n2-c2ccccc2)c1	100	94	-13	·
Clc1ccccc1CSc1nnnn1-c1ccccc1	93	84	11	102
CC(=O)n1ccc2ccccc21	98	81	-12	103

Bioassay records (PubChem)
